Source: PubChem
D2 PAM = Beta-Arrestin HTS for Positive Allosteric Modulators of the Human D2 Dopamine Receptor: Potentiators | potentiation, % (no concentration beside the values) | D(2) dopamine receptor (Homo sapiens), P14416 | 360,000 compounds, 0.23% hits | DiscoveRx D2 beta-arrestin cells, luminescence, 90 min; 100% = 57 uM dopamine signal; active = potentiation of 50% or more; inconclusive = 30% to 50%; inactive = 30% or less;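 further: compound concentration not given in the record; tested on top of an EC20 dose of dopamine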
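PathHunter beta-arrestin assay in DiscoveRx D2 cells. Compounds were added with an EC20 of dopamine (50 nM final) for 90 min at 37 deg C. Luminescence was read 1 h after detection reagent, with 57 uM dopamine as the EC100 control.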
gsp antagonist = qHTS for Antagonists of gsp, the Etiologic Mutation Responsible for Fibrous Dysplasia/McCune-Albright Syndrome: qHTS | gsp-mutant cells, cAMP HTRF, 30 min; control for the full effect not named in the record | Potency, µM (titrated, usually from 76.9 µM), inactives show at the highest dose activity change, negative = inhibition, usual class: inhibitors | 340,000 compounds, 0.4% hits | AID 624288, 2012; active = falling curve of any shape with a large fitted effect; inconclusive = falling curve, mostly with a smaller effect; inactive = flat or rising curve; cell line not stated here;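 further: intracellular cAMP measured with PDE inhibitor Ro 20-1724 present during compound exposure; potency means the concentration at half of the fitted maximal effect; on the % scale 0 is the no-effect control and ±100 the full control effect; nearly all actives have a fitted effect of over 65% in size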
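Cells, 2000/well, grown 16–24 h in DMEM 10% FBS with 0.5 mg/ml G418, then compounds plus […] (300 uM addition stock), 30 min at 37C. cAMP read by HTRF (cAMP-d2 and anti-cAMP antibody-K in lysis buffer) after 30 min RT.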
ClpP mod = qHTS Assay for Activators of ClpP; purified B. subtilis ClpP, FRET peptide cleavage, 20 min; ATP-dependent Clp protease proteolytic subunit (Bacillus subtilis (strain 168)), P80244; Potency, µM (top dose mostly 57.5 µM), inactives show top-dose activity change, negative = active; 340,000 compounds, 1.9% hits; active = well fitted falling curve with a large enough effect; inconclusive = small, poorly fitted or top-dose-only effect; inactive = no such curve, though single readings can be large or run the other way; further: potency means the concentration at half of the fitted maximal effect; the source files actives as falling curves though it sought activators and does not explain the sign; nearly all actives have a fitted effect of over 65% in size; many hits overshoot -100%
Target sequence (P80244 whole entry, looked up): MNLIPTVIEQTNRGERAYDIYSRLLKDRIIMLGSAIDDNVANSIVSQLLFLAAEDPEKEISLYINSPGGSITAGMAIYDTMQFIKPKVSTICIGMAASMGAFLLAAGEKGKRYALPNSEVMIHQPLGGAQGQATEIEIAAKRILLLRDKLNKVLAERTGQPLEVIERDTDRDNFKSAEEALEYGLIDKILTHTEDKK
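Buffer: 100 mM Tris/HCl pH8, 100 mM KCl, 0.05% low protease BSA, 2.5% glycerol, 0.01% Tween-20. ClpP 10 microg/mL final; 20 min RT; delta FRET normalized to ADEP and DMSO controls.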
TRPV1 potentiator = HTS Assay for Compounds that Act as Potentiators of the Vanilloid Receptor 1; Transient receptor potential cation channel subfamily V member 1 (Homo sapiens), Q8NER1; TRPV1-expressing cells, Fluo-8 calcium influx, capsaicin EC20 potentiation; host cell line not named in the record; control for the full effect not named in the record; potentiation, % at 8.33 µM; 320,000 compounds, 0.02% hits; active means potentiation above 80%; inconclusive means 30% to 80%; inactive means below 30%; further: 0% is about no effect
Target sequence (Q8NER1 whole entry, looked up): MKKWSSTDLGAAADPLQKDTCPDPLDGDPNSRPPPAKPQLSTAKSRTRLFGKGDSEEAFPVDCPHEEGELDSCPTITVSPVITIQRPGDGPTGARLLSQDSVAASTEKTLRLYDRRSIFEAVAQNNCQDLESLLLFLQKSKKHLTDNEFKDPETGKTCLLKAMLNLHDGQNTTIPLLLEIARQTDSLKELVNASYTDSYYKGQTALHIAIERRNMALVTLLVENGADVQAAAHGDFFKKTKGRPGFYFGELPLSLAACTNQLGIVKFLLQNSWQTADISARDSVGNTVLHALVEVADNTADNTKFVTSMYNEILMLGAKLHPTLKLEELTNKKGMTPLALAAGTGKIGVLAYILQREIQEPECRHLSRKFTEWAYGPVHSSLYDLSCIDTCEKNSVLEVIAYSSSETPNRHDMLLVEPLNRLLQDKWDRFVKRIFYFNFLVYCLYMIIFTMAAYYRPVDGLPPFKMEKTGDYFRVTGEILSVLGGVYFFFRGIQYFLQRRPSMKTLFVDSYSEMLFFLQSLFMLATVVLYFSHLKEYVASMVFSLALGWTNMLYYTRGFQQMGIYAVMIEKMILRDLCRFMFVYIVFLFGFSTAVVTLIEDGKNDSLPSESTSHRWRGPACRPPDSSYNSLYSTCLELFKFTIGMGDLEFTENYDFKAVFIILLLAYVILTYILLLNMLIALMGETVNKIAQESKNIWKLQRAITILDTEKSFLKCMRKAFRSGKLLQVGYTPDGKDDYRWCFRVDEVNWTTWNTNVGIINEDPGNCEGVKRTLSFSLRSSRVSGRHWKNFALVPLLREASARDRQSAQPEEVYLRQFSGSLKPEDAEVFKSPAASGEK
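TRPV1-expressing cells were cultured overnight at 35.5C and loaded with Fluo-8 calcium dye for 40 to 90 min at room temperature. After a 10 s baseline, compound was added and calcium influx was read kinetically for 3 min (ex 480/em 520 nm).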
Sfp PPTase inh = qHTS Assay for Inhibitors of Bacillus subtilis Sfp phosphopantetheinyl transferase (PPTase); 310,000 compounds, 3.5% hits; 4'-phosphopantetheinyl transferase ffp (Bacillus subtilis), Q9F4F7; AID 1490, 2009; Potency, µM, for the others: max response, negative = inhibition, most hits filed as inhibitors; Biochemical Sfp PPTase activity, qHTS; active means well fitted inhibition curve with a large enough effect; inconclusive means small, poorly fitted or top-dose-only effect, or another doubt; inactive means no such curve, though single readings can be large or run the other way;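 further: the enzyme is Sfp with the accession as filed and its product quenches rhodamine fluorescence; potency means the concentration at half of the fitted maximal effect; 0% = enzyme reaction without inhibitor and -100% = no enzyme wells; top concentration of the series not given in the record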
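Sfp 15 nM + cpd, 15 min RT; start w/ rhodamine-CoA 5 uM, BHQ-2-YbbR 12.5 uM (final); 50 mM Hepes pH 7.6, 10 mM MgCl2, 0.01% NP-40, 0.01% BSA; read 525/598 nm at 0 and 30 min.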
Menin-MLL FL inh = qHTS Assay for Inhibitors Targeting the Menin-MLL Interaction in MLL Related Leukemias: Competition With Fluorescein Labeled MLL-derived Peptide. Fluorescence polarization, fluorescein-MLL peptide displacement from menin. FP activity change, % at 61.4 µM. 290,000 tested, under 10 active; inconclusive = falling polarisation curve, or a change in total fluorescence; inactive = total fluorescence flat and polarisation flat or rising; no compound was filed as active; the % refers to the polarisation; negative = inhibition;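 further: % of control where 0% means no effect; inhibitors lower the polarisation; unlabelled MLL peptide was the positive control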
gsp agonist = qHTS for Agonist of gsp, the Etiologic Mutation Responsible for Fibrous Dysplasia/McCune-Albright Syndrome: qHTS. 340,000 compounds, 0.13% hits. gsp mutant cells, cAMP HTRF, 30 min; control for the full effect not named in the record. Potency, µM (highest dose often 76.9 µM), for the others: at the highest dose activation (cAMP increase), actives largely listed as activators; active = well fitted activation curve with a large enough effect; inconclusive = small, poorly fitted or top-dose-only effect, or another doubt; inactive = no such curve, though single readings can be large or run the other way; cell line not stated here;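 further: phosphodiesterase inhibitor Ro 20-1724 added with compounds to block cAMP breakdown; potency means the concentration at half of the fitted maximal effect; nearly all actives have a fitted effect of over 60% in size; about a fifth of the inactives were tested at one dose only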
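Cells in DMEM/10% FBS with G418 were pretreated with compounds in DMSO plus […] (300 uM stock) for 30 min at 37C. cAMP was measured by HTRF (cAMP-d2 plus anti-cAMP antibody-K) after 30 min at room temperature.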
Active calls of the source: *; ? = inconclusive; . = no result given; & = joins results of further samples; [ ] = dose if it differs, or a comment. Rows were taken by chance. About 5.1% of those tested had a hit in this group.

SMILES	D2 PAM	gsp antagonist	ClpP mod	TRPV1 potentiator	Sfp PPTase inh	Menin-MLL FL inh	gsp agonist
Cc1cc(C)cc(-n2ncc3c2CCCC3NC(=O)c2cc(C)n(C)n2)c1 (stereo not given)	0	-25%	-0.1%	9	1%	-9.4	25%
COc1ccccc1COC(=O)Nc1c(C)nn(C)c1Cl	-5	-10%	1.1%	-10	16%	8.6	23%
COCCNC(=S)Nc1ccc2nsnc2c1	14	7%	0.8%	2	-9%	-0.9	-4%
COc1ccc(NC(=O)c2cncc(Br)c2)cc1S(=O)(=O)N1CCCCC1	18	14%	-16%	-6	9%	6.4	-48%[inhibitor]
CN(C)c1ccc(CNCCC(Cc2ccccc2)c2ccco2)cc1 (stereo not given)	-13	-9%	.	-4	45µM*	-3.8	-7%[15.4 µM]
O=C(CN1CCCN(Cc2ccc(F)cc2Cl)C1=O)NC1CCCCCCC1	-16	?	-0.7%	-17	16%	-0.6	-3%
CCCOc1cccc(C2/C(=C(/O)c3ccccc3)C(=O)C(=O)N2CCN(C)C)c1 (stereo not given)	-12	6%	-1.8%	3	7%	4.3	3%[15.4 µM]
CC1CC(=O)Nc2ccccc2N1S(=O)(=O)c1cccc(Cl)c1 (stereo not given)	-5	9%	-2.2%	0	6%	-1.5	-5%
CC1C(c2ccccc2)N(C)C(c2ccccc2)C(C)C1(O)C#Cc1ccccc1 (stereo not given)	16	0%	-0.8%	-1	-12%	3.0	-4%
CCN(CC)C(=O)c1[nH]cnc1C(=O)Nc1ccc(C)cc1	-20	2%	0.8%	-4	.	.	-3%
c1ccc(CNc2cncnc2)cc1	-14	3%	3.8%	1	-1%	2.1	-47%[inhibitor]
O=C(Nc1ccc(Cl)cc1)[C@@H]1[C@@H]2C(=O)N(c3ccc4ccccc4c3)C(=O)[C@@H]2[C@H]2C=CC=NN21	-13	-3%	-2.5%	-15	40µM*	0.6	-34%[inhibitor]
O=C(COc1ccc(Cl)cc1)NCc1nnc(SCC(=O)Nc2ccccc2F)o1	-1	1%	.	8	1%	2.9	-12%[15.4 µM]
C=CCSc1nnc(-c2c[nH]c3ccccc23)n1CCOC	2	9%	0.6%	3	10%	1.7	?
Cc1ccc(C(=O)Nc2ccccc2C(N)=O)o1	-1	7%	-4.1%	20	9%	3.9	16%
COc1ccc(C(C#N)c2ccc(=O)[nH]n2)cc1 (stereo not given)	-6	9%	.	0	19%	3.7	2%[15.4 µM]
CCCCn1c(N)c(N(Cc2ccccc2OC)C(=O)CC2OC(=O)c3ccccc32)c(=O)[nH]c1=O (stereo not given)	?	8%	0.3%	1	.	.	-38%[inhibitor]
FC(F)(F)c1cccc(NCc2cn3cccnc3n2)c1	-17	-22%	-4.6%	6	8%	-4.2	2%
COc1ccc(CNC(=O)C2=CC(c3ccc(C)cc3)=NS(=O)(=O)N2C)cc1	-12	-3%	-1.9%	19	-1%	-0.1	-28%
COc1ccc(NC(=O)CSc2nnc(-c3ccccc3)n2Cc2ccco2)cc1OC	-14	-12%	1.9%	0	-6%	6.9	-32%
COC(=O)c1ccc(/C=C2\Oc3ccccc3NC2=O)cc1	-15	12%	-8.3%	-6	-12%	7.9	?
COc1ccccc1-n1c(=O)c(C#N)c(-c2ccc([N+](=O)[O-])cc2)c2cc(C(=O)c3cc(F)ccc3O)cnc21	3	-14%	.	-4	8%	6.3	-15%
O=S(=O)(c1ccc(F)c(F)c1F)N1CCN(C(=S)NCc2ccccc2)CC1	-7	-1%	0.6%	-14	-10%	-0.4	-12%
CCCCc1n[nH]c(=S)n1Cc1ccc(Cl)cc1	-7	0%	.	6	-13%	-1.1	-14%
CC(C)(CCC(=S)N1CCOCC1)C1CCCCC1	-2	2%	.	-7	-89%	-1.5	22%
CCOC(=O)CSCC(=O)Nc1cc(C)ccc1C	-14	3%	1.5%	0	-3%	-1.8	24%
O=C(N/N=C/c1c[nH]c2ccccc12)c1cccc(Cl)c1	-11	-20%	-1.0%	-2	5%	5.5	-28%
Cc1ccc(NC(=O)N2CCC(NC(=O)c3cccc(F)c3)CC2)cc1	-6	-18%	1.5%	-29	7%	0.9	1%[15.4 µM]
CC(C)(C)OC(=O)NCCc1nnc(SCc2c(Cl)cccc2Cl)o1	-16	5%	-3.0%	23	-9%	3.8	-1%
Cc1c(C(=O)N(C)C2CCCCC2)sc2ncnc(N3CCN(c4ccccc4F)CC3)c12	-8	-32%	-1.5%	?	-14%	-1.3	?
Cc1cc(Nc2ccc(N3CCOCC3)cc2)c2cccc(C)c2n1	-15	-10%	-4.1%	-12	-4%	1.3	7%[15.4 µM]
CCOC(=O)C1CCN(C(=O)COC(=O)C2CCN(S(=O)(=O)c3ccc4c(c3)OCCO4)CC2)CC1	-8	-7%	-3.2%	-7	.	.	5%
CCc1nnc(NC(=O)CSc2nnc(CCc3nc4ccccc4[nH]3)n2C)s1	-2	12%	-1.9%	-9	-28%	2.4	5%
CN(C(=O)c1ccc(NC(=O)Cc2cccc(NC(=O)C3CCCN(S(=O)(=O)c4cccc([N+](=O)[O-])c4)C3)c2)cc1)C1CC1 (stereo not given)	9	-5%	0.0%	.	.	.	.
Nc1nc(N)c2[nH]c(=S)[nH]c2n1	-3	-9%	.	.	.	.	-39%[inhibitor]
COc1cc2c(cc1OC)C(NC(=O)C(F)(F)F)CNC2=O (stereo not given)	-2	-10%	-1.6%	-4	12%	-1.0	-5%[15.4 µM]
COc1ccccc1OCCCCCCN1CCN(C)CC1	-17	7%	.	.	.	.	-2%
Cc1cc(NC(=O)CCCn2nc([N+](=O)[O-])cc2C)no1	-5	7%	.	7	7%	-0.7	3%
CCOC(=O)c1ccc(NC(=O)COc2ccc(CNC3CCCCC3)cc2OC)cc1	-16	.	.	-12	-4%	-3.4	0%[15.4 µM]
C[C@@H]1C(c2ccccc2)=NN(c2ccc(Br)cc2)[C@H]1C(=O)N1CCOC1=O	.	?	4.4%	.	9%	-3.4	.
CCC(CC)NC(=O)Nc1ccc(F)cc1F	-3	11%	0.2%	-6	15%	-2.5	?
COc1ccc(C)cc1NC(=O)CCC(=O)Nc1ccc2nc(N3CCN(C)CC3)cc(C)c2c1	-15	0%	28µM*	-31	14%	3.9	6%
CN(Cc1c(F)cccc1Cl)C(=O)c1ccc(NC(=O)CC2SC(N3CCCCC3)=NC2=O)cc1 (stereo not given)	-1	-22%	.	.	.	.	-4%[15.4 µM]
COc1ccc(N(C)S(=O)(=O)c2ccc3c(c2)CC(C)N3C(=O)C2CC2)c(OC)c1 (stereo not given)	14	32µM*	-2.8%	-3	-6%	-0.1	?
COc1cc(-n2c(N)c(C(=O)NCc3ccco3)c3nc4ccccc4nc32)cc(OC)c1OC	5	-21%	4.4%	-3	?	3.5	-1%
CN(Cc1ccccc1)C(=O)CCS(=O)(=O)c1ccc2c(c1)oc(=O)n2C	2	6%	1.0%&0.3%	-12	4%	.	13%
Cc1coc2cc3oc(=O)c(CCC(=O)NCC(=O)O)c(C)c3cc12	-8	4%	4.2%	19	8%	-0.4	4%
Nc1nc(Nc2cccc(F)c2)nc(NCCO)c1[N+](=O)[O-]	-7	3%	-1.9%	.	5%	2.7	-9%[15.4 µM]
CC(=NC(C)C)C1=C(O)C(C)OC1=O (stereo not given)	-7	15%	1.4%	-9	8%	-0.1	-15%
CCCC(=O)n1nc(-c2ccc(Cl)cc2)nc1SC	-6	13%	1.4%	3	2%	-0.3	-34%[inhibitor]
Oc1ccccc1CN1CCCC(N2CCc3ccccc3C2)C1 (stereo not given)	-19	7%	.	-2	6%	-2.8	-14%
Cc1cccn2c(=O)c3cc(C(=O)NC4CCCC4)c(=N)n(CCc4ccccc4)c3nc12	-12	5%	.	4	8%	.	35%
CCN(CCCNS(=O)(=O)c1ccc2c(c1)CCN2C(C)=O)c1cccc(C)c1	0	-27%	-6.4%	.	11%	-0.3	-22%
COc1ccccc1N1CCN(c2nc(C)cc(=O)[nH]2)CC1	-1	8%	.	.	.	.	0%
O=C(CSc1nnc(N2CCCC2)n1-c1ccccc1Cl)N1CCN(c2ccccn2)CC1	0	-6%	?	22	.	.	-11%
O=C(c1ccccc1F)N1CCC(O)(c2cccnc2)CC1	-12	4%	-1.5%	5	14%	4.2	?
COc1cc2sc3cc(NCc4ccc(C)o4)ccc3c(=O)c2cc1OC	3	5%	4.3%	.	.	.	.
Cc1ccc(S(=O)(=O)N2CCN(C(=O)CCc3c[nH]c4ccccc34)CC2)c(C)c1	-11	-10%	1.0%	4	.	.	-46%[inhibitor]
Cc1cc2ccccc2nc1SCC(=O)NC1CCCC1	-4	15%	.	-15	13%	2.4	18%[15.4 µM]
CCC(=O)OCCNc1cc(Sc2nc3ccccc3s2)c2nonc2c1[N+](=O)[O-]	-28	7%	-4.1%	11	4µM*	-2.6	25%
COC(=O)Nc1ccc(S(=O)(=O)N2CCCCC2C(=O)NCc2ccco2)cc1 (stereo not given)	-11	-4%	-2.5%	3	11%	1.6	17%
Cc1sc2ncnc(NC(C)C(=O)O)c2c1C (stereo not given)	-4	11%	.	-5	13%	-0.4	17%
CC(=O)c1coc2c1cc(O)c1ccccc12	16	2%	0.8%	9	5%	2.5	?
